From PubChem
HSD17B inh = qHTS Assay for Inhibitors of HSD17B4, hydroxysteroid (17-beta) dehydrogenase 4; AID 893, 2007; recombinant HSD17B10, NADH fluorescence kinetic; many of its hits are not listed in these tables; Potency, µM (highest dose often 57.1 µM), for inactives: at the top dose activity change, negative = inhibition, actives largely listed as inhibitors; 75,000 tested, 7.6% active; 3-hydroxyacyl-CoA dehydrogenase type-2 (Homo sapiens), Q99714; active = well fitted inhibition curve with a large enough effect; inconclusive = small, poorly fitted or top-dose-only effect; inactive = no such curve, though single readings can be large or run the other way;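 note: the protocol describes HADH2 (HSD17B10) and not the HSD17B4 of the title; nearly all actives have a fitted effect of over 70% in size; most hits overshoot -100% by far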
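20 nM HADH2, pH 9.0 Tris/Tween; cpd preinc 15 min RT; start w/ 1 mM NAD+ + 90 uM b-hydroxybutyryl-CoA; kinetic fluor ex360/em450 q30s x 4 min; delta last-first.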
Active calls of the source: *; ? = inconclusive; & = joins results of further samples; [ ] = remark or other dose. % is set by controls: 0 for no effect and ±100 for the full control effect; potency is the fitted concentration of half-maximal effect. Only part of the results is shown; rates above refer to the full screens.

| molecule | HSD17B inh |
| --- | --- |
| O=S(=O)(Nc1nc2ccccc2nc1NCC1CCCO1)c1cccs1 (stereo unspecified) | -5% |
| Cc1nc(NC2CCCCC2)c2nc(-c3ccccc3)n(CCN3CCCC3)c2n1 | 13µM* |
| NCCS(=O)O | 1% |
| CC(=O)OC1CC[C@]2(C)C(CC[C@@]3(C)C2C(=O)C=C2C4C(C)C(C)CC[C@@]4(C(=O)O)CCC23C)C1(C)C (stereo partly specified) | -10% |
| Cc1ccc(CCNC(=O)C2CCN(S(=O)(=O)c3cccc4nonc34)CC2)cc1 | 8% |
| CC1CCN(S(=O)(=O)c2ccc(Cl)cc2Br)CC1 | 1% |
| CC(C)(C)C(=O)OCOC(=O)[C@@H]1N2C(=O)[C@@H](N=CN3CCCCCC3)[C@H]2SC1(C)C | 1%[25.6 µM] |
| CC1=C(C(=O)OCC2CCCO2)C(c2ccccc2)NC(=O)N1 (stereo unspecified) | 1% |
| O=C(OCc1nnc(-c2ccccc2)o1)c1cc(S(=O)(=O)N2CCOCC2)c(Cl)cc1Cl | 7% |
| Nn1c(=O)c2ccccc2n2c(SCc3ccccc3)nnc12 | 16% |
| O=c1cc(CNCCCO)c2ccccc2[nH]1 | 1% |
| COC(=O)CN(c1cc(C(F)(F)F)ccc1Cl)S(C)(=O)=O | 3% |
| O=P(O)(O)COc1ccccc1P(=O)(c1ccccc1)c1ccccc1 | 5% |
| COCn1c(COc2ccccc2)nc2ccccc21 | 5% |
| Cc1cc(N2CCN(C(c3ccccc3)c3ccccc3)CC2)n2ncnc2n1 | 7% |
| O=C(NCC1CCCO1)c1cccc(NC(=O)c2ccco2)c1 (stereo unspecified) | 6% |
| CCOc1cccc(/C(O)=C2/C(=O)C(=O)N(CCOC)C2c2ccco2)c1 (stereo unspecified) | 8% |
| CO[C@H]1COC(=O)C/C=C\[C@@H](C)COC(=O)[C@@H](OCc2ccccc2)/C=C\[C@@H]1C | 1%[11.4 µM] |
| Cc1cc(C)cc(NC(=O)C2CCN(S(=O)(=O)c3c(C)n[nH]c3C)CC2)c1 | 3% |
| O=C(O)C1=CC(=C(c2ccc(O)c(C(=O)O)c2)c2ccc(O)c(C(=O)O)c2)C=CC1=O | 3.2µM* |
| CCNc1nc(NC(C)(C)C)nc(SC(C(C)=O)C(C)=O)n1 | 3% |
| COc1ccc(-c2nc(CS(=O)CC(=O)NCc3ccc(Cl)cc3)c(C)o2)cc1 (stereo unspecified) | ? |
| CCC(c1nnnn1CCOC)N1CCN(Cc2ccccc2OC)CC1 (stereo unspecified) | -2% |
| Cn1c(SCC(=O)N2CCc3ccccc32)nnc1C1CC1 | 25µM* |
| CS(=O)(=O)Nc1cccc(-c2ccc3ncnc(NC4CCNCC4)c3c2)c1 | 3% |

Reprinted from the part before: 2 compounds; new compounds follow.
| molecule | HSD17B inh |
| --- | --- |
| Cn1c(SCC(=O)N2CCc3ccccc32)nnc1C1CC1 | 25µM* |
| CS(=O)(=O)Nc1cccc(-c2ccc3ncnc(NC4CCNCC4)c3c2)c1 | 3% |
| CC1CCc2nc(NCCO)nc(C(F)(F)F)c2C1 (stereo unspecified) | -12% |
| Cc1ccc(C(=O)N2CCN(c3ccc(Cl)cc3)CC2)cc1 | 4% |
| CCOC(=O)N1CCN(C(=O)c2cccc(NC3=NC4CS(=O)(=O)CC4S3)c2)CC1 (stereo unspecified) | 9% |
| CCOC(=O)C1CCN(C(=O)CN(c2cccc(C(F)(F)F)c2)S(C)(=O)=O)CC1 | -2% |
| Nn1c(SCC(=O)Nc2ccccc2F)nnc1-c1cccnc1 | 1% |
| O=C(COC(=O)C1CC1)Nc1ccc(Oc2ccccc2)cc1 | -1% |
| Nc1ccn([C@H]2O[C@@H](COP(=O)(O)O)[C@@H](O)[C@H]2O)c(=O)n1 | 4%[11.4 µM] |
| O=C(CNc1ccccc1)Nc1ccc(F)cc1 | 2% |
| Cc1occc1C(=O)NCc1ccccn1 | 4% |
| COc1cc(NC(=O)COc2cccc(OC)c2)cc(OC)c1 | -6% |
| CCOC(=O)CNC(=O)c1cc(C)oc1C | -6% |
| COc1ccccc1CNc1ccnc(-c2ccccc2C(F)(F)F)n1 | -20% |
| CCCOc1ccccc1C1CC(=O)Nc2cc3c(cc21)OCO3 (stereo unspecified) | -12% |
| COCCNC(=O)C1CC(c2cccc(OC)c2)=NO1 (stereo unspecified) | 3% |
| CCOc1cc(CN2CCN(c3cccc(C(F)(F)F)c3)CC2)ccc1O | 3% |
| COc1cc(OC)c(C2=NOC(C(=O)NCc3ccc4c(c3)OCO4)C2)cc1Cl (stereo unspecified) | -23% |
| CC(C)OC(=O)CSc1nc2ccccc2s1 | 4% |
| O=C(NCc1ccccc1)N1CCN(c2ccc(Cl)c(Cl)c2)CC1 | 0% |
| O=C(Nc1cc(C(=O)N2CCOCC2)cc(C(=O)N2CCOCC2)c1)c1cc(F)c(F)cc1Cl | 2% |
| CCOC(=O)c1c(NC(=O)CSc2nnc(CNc3ccc(OC)cc3)n2C)sc(C)c1C | -3% |
| CCCCCC1=C2CNC(CC(C)C)(C(=O)OC)C=C2C(C)C1=O (stereo unspecified) | -10% |
| Cn1cccc1Cc1nnc(SCC(=O)Nc2ccccc2F)n1-c1ccc(F)cc1 | 5% |
| O=C(Nc1ccccc1OC(F)F)c1ccc(F)cc1 | 19% |
| COCCn1c(SCC(=O)Nc2nnc(C)s2)nnc1-c1ccncc1 | -3% |
| CN1CCc2c(sc3c2c(=O)n(-c2cccc(Cl)c2)c2nncn32)C1 | 1% |

Overlap with the part before: 2 entries; new compounds follow.
| molecule | HSD17B inh |
| --- | --- |
| COCCn1c(SCC(=O)Nc2nnc(C)s2)nnc1-c1ccncc1 | -3% |
| CN1CCc2c(sc3c2c(=O)n(-c2cccc(Cl)c2)c2nncn32)C1 | 1% |
| c1nc(N2CCNCC2)c2cc(-c3ccc4c(c3)OCO4)ccc2n1 | 8% |
| CC1Cc2ccccc2N1C(=O)COC(=O)Cn1nnc(-c2ccccc2)n1 (stereo unspecified) | 6% |
| Nc1ncnc2c1ncn2CCOc1ccccc1 | 7% |
| O=C(CSc1nnnn1-c1ccc2c(c1)CCC2)NCc1cccs1 | -2% |
| O=C(CSc1nc(-c2ccco2)cc(C(F)(F)F)n1)NCC1CCCO1 (stereo unspecified) | ? |
| O=C(C1CC1)N1CCc2cc(S(=O)(=O)NCCC3=CCCCC3)ccc21 | -1% |
| CC1CCCCN1CCNC(=O)c1cc2c(=O)n(C)c3ccccc3c2n1C (stereo unspecified) | 32µM* |
| C/C=C(\C)C(=O)OC1[C@@H]2C=C3C4CC(=O)OC(c5ccoc5)[C@]4(C)CCC3[C@@](C)(C2=O)C(C(O)C(=O)OC)C1(C)C (stereo partly specified) | -6% |
| CCCCC(CC)CN (stereo unspecified) | 1%&0% |
| O=c1c2ccccc2nc2c3ccccc3c3nncn3n12 | -2% |
| CC1Cc2cc(C(=O)O)ccc2O1 (stereo unspecified) | 3% |
| C#CCOC(=O)c1ccccc1C(=O)n1nnc2ccccc21 | -14% |
| CC(C)OC(=O)CN1C(=O)C(C)(C)Oc2ccc(C(=O)NC(C)(C)C)cc21 | 5% |
| O=C(Nc1ccccc1)OCc1ccccn1 | 10% |
| COc1ccc(-n2[nH]c(C)cc2=O)cc1 | -1% |
| Cc1ccc2c(c1)NC(=O)C(CC(=O)NCCCN1CCN(C3CCCCC3)CC1)O2 (stereo unspecified) | -5% |
| CC(Sc1nc(-c2ccccc2)cc(C(F)(F)F)n1)C(=O)NCCN1CCOCC1 (stereo unspecified) | -1% |
| CC1OC(OCC2OC(Oc3c(-c4ccc(OCCO)c(OCCO)c4)oc4cc(OCCO)cc(O)c4c3=O)C(O)C(O)C2O)[C@@H](O)C(O)C1O (stereo partly specified) | -5% |
| CCOc1ccc(-c2cc(CCCC(=O)Nc3cccc(OC)c3)no2)cc1 | -6% |
| COc1ccc(CCNC(=O)Cn2c(-c3nonc3N)nc3ccccc32)cc1OC | -1% |
| Cc1cccc(N2CCN(C(=O)c3cc4ccccc4oc3=O)CC2)c1C | -4% |
| COc1cc(C2=NOC(C(=O)N3CCOCC3)C2)cc(OC)c1OC (stereo unspecified) | -8% |
| O=C(c1ccc(F)cc1)C1CCN(C(=O)c2ccncc2)CC1 | -2% |
| Cc1ccc(-c2csc3nc(=O)c(C)nn23)cc1 | -3% |
| Nc1c(C(=O)NCc2ccccc2)nnn1Cc1ccc(F)cc1 | 0% |

Additional records follow:
| molecule | HSD17B inh |
| --- | --- |
| O=C(Nc1ccccn1)C1CCN(S(=O)(=O)c2cccc3nonc23)CC1 | -7% |
| Cc1cc(C)nc(NC2=NC3CCCCC3N2)n1 (stereo unspecified) | 5% |
| CCN(C1CCCCC1)S(=O)(=O)c1ccc(OC)c(C)c1 | -9% |
| CC(OC(=O)c1ccccc1NCc1ccco1)C(=O)Nc1ncc(Cl)cc1Cl (stereo unspecified) | 25µM* |
| Cc1cc(C(=O)OCC(=O)NCc2ccco2)c(C)n1-c1ccccc1 | ? |
| COC(=O)[C@@]1(Cc2ccc(F)cc2)[C@@H]2[C@@H](CC(=O)[C@H]2CC(=O)C(=O)N(C)C)CN1C(=O)c1ccccc1 | -5% |
| CN(C)S(=O)(=O)N1CCN(S(=O)(=O)N(C)C)CC1 | 1% |
| O=C(NCCN1C(=O)C2C3C=CC(C3)C2C1=O)N1CCCCC1 (stereo unspecified) | 4% |
| COc1cc(O)c(C(=O)c2ccccc2)cc1O | 13µM* |
| CCC(CC)C(=O)Nc1cc(OC)c(OC)cc1C(=O)O | -20% |
| Cc1cccc(OCc2nc(-c3nonc3N)no2)c1C | 8% |
| O=C(Nc1ccc2snnc2c1)N1CCN(c2ccccc2)CC1 | -6% |
| COc1ccc(NC(=O)Nc2ccccc2C(N)=O)cc1OC | 21% |
| COc1cccc(CNc2nc3ccccc3n2CCN2CCCCC2)c1OC | 4% |
| COc1ccc(-n2c(/C=C(\C)O)nc(=O)c3c(C)cc(C)nc32)cc1 | -5% |
| O=C(NCCc1ccc2c(c1)OCCO2)c1cc2ccccc2o1 | 0% |
| CCCn1nnc(NCc2ccc(OCc3cccs3)c(OC)c2)n1 | 14% |
| CCC(Oc1ccccc1)C(=O)Nc1ccccc1OC (stereo unspecified) | -1% |
| N#CC1=C(N)Oc2nc(-c3ccccc3)[nH]c2C1c1cccnc1 (stereo unspecified) | -6% |
| CCN1CCN(CC(=O)Nc2c(C(=O)OC)[nH]c3cccc(Cl)c23)CC1 | -1% |
| CCN(CC)CCc1nc(-c2ccccc2)no1 | 0%[25.6 µM] |
| COc1ccc(C2CC(C(F)(F)F)n3nc(CO)c(Cl)c3N2)cc1OC (stereo unspecified) | 0% |
| Cc1ccc(C(=O)CN2CCC(NC(=O)C3CCCCC3)CC2)cc1 | 2% |
| O=C(CN(C(=O)CCC(=O)Nc1nccs1)c1ccc(F)c(Cl)c1)NCc1ccco1 | 9% |
| CC(=O)Nc1ccc(S(=O)(=O)NC2=NCN(CCOC(=O)c3ccccc3)CN2)cc1 | 8% |

4 entries from above, as labelled records.
SMILES: COc1cccc(CNc2nc3ccccc3n2CCN2CCCCC2)c1OC
- HSD17B inh: 4%

SMILES: COc1ccc(-n2c(/C=C(\C)O)nc(=O)c3c(C)cc(C)nc32)cc1
- HSD17B inh: -5%

SMILES: O=C(NCCc1ccc2c(c1)OCCO2)c1cc2ccccc2o1
- HSD17B inh: 0%

SMILES: CCCn1nnc(NCc2ccc(OCc3cccs3)c(OC)c2)n1
- HSD17B inh: 14%

The list goes on:
| molecule | HSD17B inh |
| --- | --- |
| COc1ccccc1NC(=O)Cc1noc(CSc2nnc(C)s2)n1 | -6% |
| O=C(NC1CC1)c1ccc(COc2ccc(F)cc2)o1 | -10% |
| CC(C)Sc1nnc(Cn2c(=O)sc3ccccc32)n1-c1ccccc1 | -5% |
| O=C(NCc1cccc(CNC(=O)c2ccco2)c1)c1ccco1 | -1% |
| CCCCOc1cccc(C(=O)N(Cc2ccco2)C2CCS(=O)(=O)C2)c1 (stereo unspecified) | -10% |
| COc1ccc(-c2cc(C(F)F)nc(-n3nc(C)cc3C)n2)cc1 | 25µM* |
| COCn1c2ccccc2c2nnc(C(C)=O)nc21 | 1%&-8%[11.4 µM] |
| CCC1(C)Cc2ccccc2-c2nc3n(c(=O)c21)CCCCC3 (stereo unspecified) | -1% |
| CCCN1CCN(CCCNC(=O)c2cc3c(=O)n(C)c4ccccc4c3n2C)CC1 | 25µM* |
| COC(=O)c1cc(Br)c(=O)n(-c2ccccc2OC)c1 | 3% |
| CCN1CCN(C(=O)C2c3cc(OC)c(OC)cc3C(=O)N3CCc4ccccc4C23)CC1 (stereo unspecified) | -1% |
| COC(=O)CSc1nc2ccccc2nc1SCC(=O)OC | -6% |
| c1cc(OCC2CO2)cc(OCC2CO2)c1 (stereo unspecified) | 2% |
| Cc1cc(C)n(-c2ccc(C(=O)Nc3nc4ccccc4s3)cc2)n1 | 32µM* |
| Cc1ccc2ncnc(NCCCN3CCOCC3)c2c1 | -8% |
| Cc1cccc2cc(CN(Cc3ccco3)S(=O)(=O)c3ccc4c(c3)OCCO4)c(=O)[nH]c12 | ? |
| CCOC(=O)N1CCC(c2cc(=O)n3[nH]c(-c4ccccc4)cc3n2)CC1 | 25µM* |
| Cc1cc(C)nc(SCC(=O)Nc2ccc(N3CCOCC3)c(Cl)c2)n1 | -29% |
| O=C(NCCCN1CCCC1=O)c1ccc(CNS(=O)(=O)c2ccc(F)cc2)cc1 | 2% |
| Cn1cccc1C(=O)N1CCC2(CC1)CCN(c1ccccn1)CC2 | 32µM* |

2 compounds picked at random from the list so far, as already listed:
| molecule | HSD17B inh |
| --- | --- |
| Cc1ccc(C(=O)N2CCN(c3ccc(Cl)cc3)CC2)cc1 | 4% |
| CCCOc1ccccc1C1CC(=O)Nc2cc3c(cc21)OCO3 (stereo unspecified) | -12% |
